gsp agonist = agonists of gsp mutant (McCune-Albright syndrome); gsp mutant cells, cAMP HTRF, 30 min; control for the full effect not named in the record; Potency, µM (highest dose often 76.9 µM), for the others: at the highest dose activation (cAMP increase), actives largely listed as activators; hit rate 0.13% among 340,000; active = well fitted activation curve with a large enough effect; inconclusive = small, poorly fitted or top-dose-only effect, or another doubt; inactive = no such curve, though single readings can be large or run the other way; cell line not stated here;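 note: phosphodiesterase inhibitor Ro 20-1724 added with compounds to block cAMP breakdown; potency is the fitted concentration of half-maximal effect; nearly all actives have a fitted effect of over 60% in size; about a fifth of the inactives were tested at one dose only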
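Cells stably selected in G418 were plated at 2000/well, grown 16-24 hr, then given compounds in DMSO with the PDE inhibitor […] (300 uM solution added) for 30 min at 37C; cAMP was read by HTRF.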
ClpP mod = qHTS Assay for Activators of ClpP; AID 651965, 2013; Potency, µM (series often up to 57.5 µM), without a hit: at the highest dose activity change, negative = active; purified B. subtilis ClpP, FRET peptide cleavage, 20 min; hit rate 1.9% among 340,000; active = well fitted falling curve with a large enough effect; inconclusive = small, poorly fitted or top-dose-only effect; inactive = no such curve, though single readings can be large or run the other way; note: potency is the fitted concentration of half-maximal effect; the source files actives as falling curves though it sought activators and does not explain the sign; nearly all actives have a fitted effect of over 65% in size; many hits overshoot -100%
Target sequence (P80244 whole entry, looked up): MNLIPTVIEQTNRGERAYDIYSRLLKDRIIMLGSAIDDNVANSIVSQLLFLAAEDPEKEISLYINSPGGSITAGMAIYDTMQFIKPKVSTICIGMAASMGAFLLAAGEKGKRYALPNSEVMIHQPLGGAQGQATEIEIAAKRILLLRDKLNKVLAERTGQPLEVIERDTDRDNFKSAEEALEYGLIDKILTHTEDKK
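Purified B. subtilis ClpP, 10 microg/mL final in Tris/HCl pH8 with KCl, BSA, glycerol and Tween-20, cleaved an Abz/nitrotyrosine-quenched decapeptide. Fluorescence (ex 320, em 430) was read at 0 and 20 min at room temperature. Delta was normalized to 5.8 microM ADEP and DMSO/no-enzyme controls.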
D2 agonist = human D2 receptor agonism in beta-arrestin assay. P14416. hit rate 0.084% among 360,000. activation, % (no concentration beside the values). DiscoveRx PathHunter D2 beta-arrestin, luminescence, 90 min; 100% = 57 uM dopamine signal; in the data active = activation above about 40%; inconclusive = about 15% to 40%; inactive = below about 15%; note: compound concentration not given in the record; the text of the record calls up to 30% inactive
Target sequence (P14416 whole entry, looked up): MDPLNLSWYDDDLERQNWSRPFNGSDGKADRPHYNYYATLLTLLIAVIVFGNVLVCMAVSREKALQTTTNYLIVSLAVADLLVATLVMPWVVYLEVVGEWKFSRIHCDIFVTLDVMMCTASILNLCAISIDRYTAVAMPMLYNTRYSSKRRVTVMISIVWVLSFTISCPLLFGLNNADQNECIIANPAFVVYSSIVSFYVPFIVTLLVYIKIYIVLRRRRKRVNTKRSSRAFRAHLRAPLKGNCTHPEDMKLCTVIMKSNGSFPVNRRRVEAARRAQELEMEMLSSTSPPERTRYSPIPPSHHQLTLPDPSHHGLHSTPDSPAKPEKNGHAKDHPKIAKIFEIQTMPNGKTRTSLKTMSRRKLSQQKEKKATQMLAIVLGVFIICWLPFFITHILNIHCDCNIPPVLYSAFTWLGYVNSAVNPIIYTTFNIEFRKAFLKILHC
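Agonist mode: compounds alone added to overnight-plated D2 PathHunter cells for 90 min at 37 C, with 57 uM final dopamine (EC100) defining full response. Beta-arrestin recruitment detected by chemiluminescent reagent, read after 1 h at ambient temperature.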
Menin-MLL FL inh = menin-MLL binding inhibition, fluorescein peptide; Fluorescence polarization, fluorescein-MLL peptide displacement from menin; FP activity change, % at 61.4 µM; 290,000 tested, under 10 active; AID 1766; inconclusive = falling polarisation curve, or a change in total fluorescence; inactive = total fluorescence flat and polarisation flat or rising; no compound was filed as active; the % refers to the polarisation; negative = inhibition;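 note: % of control where 0% means no effect; inhibitors lower the polarisation; unlabelled MLL peptide was the positive control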
PINK1 modulator = PINK1 expression modulation | PINK1 immunofluorescence, high-content cytometry, 24 h | Potency, µM (series often up to 76.6 µM), for the others: at the highest dose activation (PINK1 increase), hits mostly activators | hit rate 0.2% among 410,000; active = well fitted activation curve with a large enough effect; inconclusive = small, poorly fitted or top-dose-only effect; inactive = flat fitted curve, though single readings scatter; cell line not stated here;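 note: potency is the fitted concentration of half-maximal effect; % of control where 0% means no effect; nearly all actives have a fitted effect of over 65% in size; a mitochondrial uncoupler was the plate control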
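PINK1 protein level read as immunofluorescence by microplate cytometer in a fixed, stained stable cell line after 24 h exposure to five compound concentrations, with CCCP as control.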
gsp antag = antagonists of gsp mutant (McCune-Albright syndrome) | Potency, µM (top dose mostly 76.9 µM), without a hit: at the top dose activity change, negative = inhibition, usual class: inhibitors | gsp-mutant cells, cAMP HTRF, 30 min; control for the full effect not named in the record | hit rate 0.4% among 340,000; active = falling curve of any shape with a large fitted effect; inconclusive = falling curve, mostly with a smaller effect; inactive = flat or rising curve; cell line not stated here;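 note: intracellular cAMP measured with PDE inhibitor Ro 20-1724 present during compound exposure; potency is the fitted concentration of half-maximal effect; % is set by controls: 0 for no effect and ±100 for the full control effect; nearly all actives have a fitted effect of over 65% in size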
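Cells, 2000/well, grown 16–24 h in DMEM 10% FBS with 0.5 mg/ml G418, then compounds plus […] (300 uM addition stock), 30 min at 37C. cAMP read by HTRF (cAMP-d2 and anti-cAMP antibody-K in lysis buffer) after 30 min RT.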
Sfp inh = Sfp phosphopantetheinyl transferase inhibition; hit rate 3.5% among 310,000; Potency, µM, for inactives: max response, negative = inhibition, hits mostly inhibitors; Biochemical Sfp PPTase activity, qHTS; Q9F4F7; active = well fitted inhibition curve with a large enough effect; inconclusive = small, poorly fitted or top-dose-only effect, or another doubt; inactive = no such curve, though single readings can be large or run the other way;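 note: the enzyme is Sfp with the accession as filed and its product quenches rhodamine fluorescence; potency is the fitted concentration of half-maximal effect; 0% = enzyme reaction without inhibitor and -100% = no enzyme wells; top concentration of the series not given in the record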
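Fluorescence-quenching assay with 15 nM Sfp, 5 uM rhodamine-CoA and 12.5 uM BHQ-2-labelled ybbR peptide in pH 7.6 Hepes/MgCl2 buffer. Enzyme was pre-incubated with compound for 15 min at room temperature. Rate was taken from the 30-min fluorescence change (525/598 nm).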
Active calls of the source: *; ? = inconclusive; . = not tested or not shown; & = joins results of further samples; [ ] = another dose, or the depositor's remark.

SMILES	Menin-MLL FL inh	D2 agonist	ClpP mod	gsp antag	PINK1 modulator	Sfp inh	gsp agonist
COc1ccc(C2C(C(C)=O)=C(O)C(=O)N2c2ccc(F)cc2)cc1 (stereo not drawn)	-1.3	-4.6	-4.1%	-2%	1.0%	18%	?
O=C(OCC(=O)c1ccc(Cl)cc1Cl)c1cnccn1	0.4	-16	.	13%	-1.4%	3%	?
CCOC(=O)C1CCCN(c2c(NCCCN(CC)c3cccc(C)c3)c(=O)c2=O)C1 (stereo not drawn)	0.3	-2.4	0.6%	-15%	0.1%	3%	15%
O=C(Nc1ccccc1)c1ccc2nc(-c3ccco3)c(-c3ccco3)nc2c1	26	7.4	-4.2%&-12%	-11%	-5.4%[38.3 µM]	20µM*	8%
COc1ccc(OCC(=O)Nc2ccc(OC)c(S(=O)(=O)N3CCCCC3)c2)cc1	.	-3.3	2.1%	-3%	9.6%	.	-12%
CC(C)NCc1cccc([N+](=O)[O-])c1	0.9	-4.4	1.3%	6%	-1.4%	?	-26%[15.4 µM]
CN(C)S(=O)(=O)c1ccc(NC(=O)CSc2n[nH]c(=O)n2C2CC2)cc1	5.5	-3.3	1.0%	5%	2.9%	12%	-13%
COC(=O)C1=C[C@@H](C(=O)OC)[C@@H]2C3=C(C(=O)C2(C)C)[C@H](C)n2c(=O)n(-c4ccccc4)c(=O)n2[C@@H]3C1	-0.2	0.1	-1.9%	-6%	0.7%	3%	.
O=C(Nc1cccc(-c2cccc(Cl)c2)c1)C1CCN(Cc2nccs2)CC1	.	1.8	1.5%	.	?	.	?
Cn1c(/C=C/c2ccc(Br)cc2)nc2ccccc2c1=O	-0.1	-3.1	-11%	-10%	4.6%	-6%	26%
Cc1ccc(C(=O)NCc2ccc(Cl)cc2)o1	-0.7	1.6	-0.3%	9%	0.6%	-18%	-1%
O=C(/C=C/c1ccc(Cl)cc1)Nc1nccs1	-3.6	-2.3	-9.5%	-2%	0.0%	8%	0%

The list goes on:
SMILES	Menin-MLL FL inh	D2 agonist	ClpP mod	gsp antag	PINK1 modulator	Sfp inh	gsp agonist
C=CCn1c(/N=C/c2ccc(OC)cc2)nc2ccccc21	7.2	-0.7	0.2%	16%	0.3%	6%	3%
Oc1ccccc1C1CCCCC1c1ccccc1 (stereo not drawn)	14	1.1	-0.3%	6%	2.3%	20%	-3%[15.4 µM]
O=C(O)c1ccc(-n2nncc2-c2ccccc2)cc1	0.7	0.9	.	-29%	3.7%	16%	?
O=C1NC(=O)C2(CCCc3ccc([N+](=O)[O-])cc32)N1 (stereo not drawn)	.	-1.6	-1.1%	.	0.0%	.	-10%
CCOc1ccc(Nc2cc(C)c3ccccc3n2)cc1	-15	-8.6	-6.3%	-7%	?	-1%	-30%
Cc1ccc2nc(N3CCN(C(=O)c4ccc(F)cc4)CC3)c(C#N)cc2c1	2.5	-0.8	?	?	2.8%	-8%	-37%[inhibitor]
CC(=O)NC(Cc1cc(C)ccc1C)C(=O)N1CCN(C(=O)c2ccc([N+](=O)[O-])cc2)CC1 (stereo not drawn)	0.5	7.2	.	-12%	0.2%	18%	-17%
NC(=O)CN1C(=O)C2CCCCN2C(=O)c2ccccc21 (stereo not drawn)	-3.4	-3.3	-0.1%	21%	0.0%	3%	-1%
CCOc1cccc2cc(C(N)=O)c(=NCc3ccccc3)oc12	6.2	-0.2	0.2%	-8%	29%[38.3 µM]	10%	-2%
CCCCNC(=S)Nc1cc(S(=O)(=O)N2CCCCC2)ccc1C	0.4	-1.2	.	-2%	0.0%	19%	25%[15.4 µM]
Clc1cccc(Cl)c1/C=N\Nc1nccs1	7.1	0.2	-6.8%	-4%	.	-1%	-28%
O=C(NCc1cccs1)c1cccnc1C(=O)O	0.7	1.1	0.1%	4%	9.1%[38.3 µM]	-37%	6%

Other compounds
SMILES	Menin-MLL FL inh	D2 agonist	ClpP mod	gsp antag	PINK1 modulator	Sfp inh	gsp agonist
CC(=O)c1ccc(OCC(C)C)c(Cc2c(O)nc(N)[nH]c2=O)c1	0.1	-1.7	0.9%	-7%	-0.2%	8%	17%
CCCC[n+]1ccc(-c2nc3ccc([N+](=O)[O-])cc3[nH]2)cc1	-3.1	-5.1	-1.5%	32%[activator]	-2.1%	4%	?
CCOc1ccc(CCNC(=O)Cc2ccc(NC3=NC4CS(=O)(=O)CC4S3)cc2)cc1 (stereo not drawn)	-4.2	-8.1	-3.1%	10%	-0.6%	3%	?
CSc1nc(N)nc(N(C)C)n1	0.4	-5.1	-2.5%	-4%	-0.3%	16%	3%
CCC(=O)N1N=C(c2ccc(NS(C)(=O)=O)cc2)CC1c1ccc(N(C)C)cc1 (stereo not drawn)	-2.3	-5.8	4.5%	-6%	9.0%	-2%	-19%
O=C(CC1C[C@H](C(=O)N2CCCCC2)[C@@]2(CCc3ccccc3)c3[nH]c4ccccc4c3CCN2C1=O)NCc1ccco1 (stereo partly drawn)	.	-0.5	-1.8%	-29%	4.2%	.	.
COc1ccc(S(=O)(=O)N2CCC(C(=O)N3CCCC3)CC2)cc1C	-3.9	-2.8	.	4%	0.0%	9%	14%[15.4 µM]
O=C(N/N=C/c1ccc(O)cc1O)c1ccc(CN2C(=O)c3cccc4cccc2c34)cc1	8.8	3.3	.	-12%	-1.4%	21%	?
CCOc1ccc(S(=O)(=O)N2CCCCC2)cc1NC(=O)CCc1ccc(OC)cc1	.	0.8	-0.2%	-10%	1.3%	.	19%
O=C(CCNC(=O)Cn1ccc2ccccc2c1=O)NCCN1CCN(c2ccccc2F)CC1	.	-3.1	-5.4%	4%	-0.6%	.	-27%
O=C(c1ccc(S(=O)(=O)Nc2ccccc2)cc1)N1CCCCCCC1	.	-1.5	-0.4%	-9%	0.7%	14%	2%
O=C(Nc1c(C(=O)N2CCOCC2)cnn1-c1ccccc1)c1ccco1	4.5	-0.3	0.1%	14%	-4.5%[38.3 µM]	17%	29%

Following part
SMILES	Menin-MLL FL inh	D2 agonist	ClpP mod	gsp antag	PINK1 modulator	Sfp inh	gsp agonist
COc1ccc(-c2csc(NC(=O)c3ccco3)n2)cc1	0.6	-1.9	-0.3%	-8%	2.5%	-14%	24%
Cc1cc(C)cc(N(CC(=O)NC2CCCCC2)C(=O)CCC(=O)Nc2cc(C)ccn2)c1	2.4	-3.3	0.5%	-5%	-1.3%	12%	0%
O=C(COC(=O)c1ccccc1C(=O)c1ccccc1)NCc1ccc(F)cc1	-4.4	-9.4	0.4%	-25%	0.2%	13%	7%[15.4 µM]
COc1ccc(Cl)cc1NC(=O)CN(C)CC(=O)Nc1cc(OC)c(OC)c(OC)c1	-0.3	6.7	-1.8%	-15%	2.5%	4%	15%
Cc1ccc(S(=O)(=O)NN2C(=O)/C(=C/c3ccccn3)SC2=S)cc1	3.3	-4.1	0.3%	-16%	2.4%	-15%	4%
Cc1c(Nc2cc(N3CCCCCC3)c3nonc3c2[N+](=O)[O-])c(=O)n(-c2ccccc2)n1C	-0.1	-1.9	-2.0%	2%	2.7%	15%	-1%
N#Cc1c(-c2cccs2)cc(C2CC2)nc1SCC(N)=O	0.1	-2.1	16µM*	4%	6.7%	-5%	?
COc1ccccc1CCn1cc(C#N)c(=O)[nH]c1=O	1.8	-2.6	1.3%	-16%	1.8%	17%	6%
Cc1nc(Nc2ccncc2)c2oc3ccccc3c2n1	2.2	-4.2	14µM*	7%	11%[38.3 µM]	7%	6%
O=C(c1ccc(S(=O)(=O)N2CCOCC2)cc1)N(c1ccccn1)C1CCCCC1	2.8	-2.6	.	1%	0.5%	-2%	7%[15.4 µM]
COc1ccc(-c2nc3cnc(OC)nc3n(C[C@H]3CCCO3)c2=O)cc1	-2.1	.	.	.	3.4%	17%	.
O=C(O)[C@@H]1CCCC[C@@H]1C(=O)N1CCc2ccccc2C1CN1C(=O)c2ccccc2C1=O (stereo partly drawn)	7.3	-2.8	0.5%	-9%	0.2%	-10%	-8%

Later entries
SMILES	Menin-MLL FL inh	D2 agonist	ClpP mod	gsp antag	PINK1 modulator	Sfp inh	gsp agonist
COc1ccc(/C=N/N2CCN(c3ccncc3S(=O)(=O)N3CCCCC3)CC2)cc1	13	-1.1	2.5%	-1%	-0.1%	14%	-38%[inhibitor]
CC1CCCCN1c1ncnc2ccccc12 (stereo not drawn)	2.0	-3.6	-4.1%	-24%	.	1%	9%
NC(=O)CC(NC(=O)Cc1ccc(Br)cc1)c1ccc(N2CCC(N3CCCC3)CC2)c([N+](=O)[O-])c1 (stereo not drawn)	-0.9	-3.8	-1.5%	-2%	-0.3%	13%	.
O=C(NCc1nc2ccccc2[nH]1)C1=C[C@@H](C2CCCCC2)C[C@@H](OCCCCO)O1	3.2	2.3	0.7%	-13%	?	8%	-19%
COC(=O)N/N=C/c1cc(C)n(-c2ccccc2)c1C	-0.7	0.4	-2.2%	1%	-0.7%	3%	-19%
Nc1cc(N2CCCCC2)c(Cl)cc1[N+](=O)[O-]	1.8	-2.9	1.5%	4%	-2.8%	1%	7%
COc1ccccc1NC(=O)CCC(=O)N/N=C(/C)c1ccc(C)cc1	-2.4	-3.5	-2.2%	25%	3.8%	28%	3%[15.4 µM]
COc1ccc(C(=O)c2oc3ccccc3c2N)cc1	-2.0	-2.3	3.7%	-9%	-0.4%	79µM*	-10%
O=C(Nc1ccc(C(=O)NCCCN2CCCCC2)cc1)C1=CSCCO1	.	2.1	-0.2%	5%	1.5%	7%	-1%
Cn1c(=O)c(C(=O)NCc2ccc(F)cc2)c(O)c2ccccc21	5.8	-0.8	0.0%	13%	9.4%	1%	19%
CCOC(=O)C1=CC[C@@H](c2ccccc2)N(S(=O)(=O)c2ccc(C)cc2)[C@H]1c1cccc(OC)c1	.	-6.1	-0.4%	.	2.0%	.	.
S=C1NC2=C(CCCC2=C2SCCCS2)C(c2ccccc2)N1 (stereo not drawn)	-4.1	-5.5	.	-1%	3.4%	-12%	-1%[15.4 µM]
Nc1nnc(CCN2C(=O)CSC2=O)s1	4.3	0.1	-1.9%	5%	-5.0%[38.3 µM]	3%	-41%
N#C/C(=C\c1ccccc1)c1ccccn1	-2.5	0.8	?	5%	0.2%	12%	-35%

Bioassay records (PubChem BioAssay)
